Sa helicase inh = inhibitors of S. aureus replicative helicase, primary screen, biochemical, fluorescence unwinding readout; replicative DNA helicase (DnaC/DnaB), Staphylococcus aureus; purified S. aureus helicase, fluorescence unwinding assay; about half of the hits fall short of the stated cut; inhibition, %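 (tested at about 80 µM)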; hit rate 0.05% among 120,000; AID 485395, 2010;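 active means both duplicates at 50% or more, or one of them with a favoured structure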;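 further: 0% = mean of negative control wells and 100% = mean of positive control wells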
MgrA DNA FP = S. aureus MgrA activity modulators, primary screen, biochemical, S. aureus Newman, fluorescence polarization. MgrA-DNA binding. inhibition, %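 (about 10 µg/mL by stock and volumes)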. hit rate 0.13% among 84,000. AID 602314, 2012;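 active means above 50% in either of two replicates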;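 further: 0% = protein plus DNA without compound and 100% = DNA alone without protein; higher means less MgrA bound to DNA so lower polarization; one replicate is shown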
* marks the source's active call; other numbers are inactive results; / = no result given; & = joins results of further samples. These rows are one share of the data (hit frequency here may not be typical).

Sa helicase inh	MgrA DNA FP	SMILES
10	0.0	CC(N=CC1=C(O)CC(C)(C)CC1=O)c1ccccc1 (stereo not drawn)
8	4.5	Cc1ccc(Oc2ccccc2)c(NC(=O)c2ccccc2)c1
/	0.2	O=C(c1cccc(CN2CCN(c3nc(-c4ccccc4)ns3)CC2)c1)N1CCC(O)CC1
-22	/	COc1ccc(OCC(O)Cn2c(=N)n(Cc3ccccc3)c3ccccc32)cc1 (stereo not drawn)
/	-1.4	CCOC(=O)C1=C(C)N=c2s/c(=C/c3ccc(OC)c(OC(C)=O)c3)c(=O)n2C1c1ccccc1Cl (stereo not drawn)
19	-5.1	CN(C)C(=O)NC1CC(C)(C)N(O)C(C)(C)C1
6	1.8	COc1ccc(CN2CCSCC2)c(C)c1C
25	/	CC(C)(C)C1CCC(OC(=O)CN2CCCCC2)CC1 (stereo not drawn)
12	/	Cc1cc(C)cc(Nc2cc(C)nc(-n3nc(C)cc3C)n2)c1
/	3.5	N#Cc1ccc([N+](=O)[O-])s1
11	/	NC(=O)Cn1nc(C(=O)O)c2ccccc2c1=O
6	/	CCc1cc2c(cc3c(=O)n(CCCC(=O)NC4CCCCC4)ncn32)s1
6	0.2	C=CCn1c2ccccc2c2nnc(SC(CC)C(=O)Nc3nnc(C(F)(F)F)s3)nc21 (stereo not drawn)
-15	0.5	CCN(CC)C(=O)c1c[nH]c2ccccc2c1=O
14	4.2	COC(=O)C[N+]1(Cc2ccco2)CCCCC1
1	-2.9	COC(=O)c1ccc(C=Nc2ccc(O)c(-c3nc4ccccc4o3)c2)cc1
4	/	O=C(Nc1ccn(Cc2c(F)cccc2Cl)n1)c1cc2ccccc2oc1=O
/	2.2	CCCCCCCCCCCCCCCC(=O)N[C@H](CN1CCOCC1)[C@H](O)c1ccccc1
-2	-1.5	O=C(c1cc(-c2ccc(F)cc2)no1)N1CCOCC1
-3	/	C=CCNC(=S)Nc1ccc(C)cc1
26	/	CCCN(CCC)C(=O)COc1cc(=O)n(CC)c2ccccc12
/	0.9	N/C(=N\OC(=O)c1ccc(Cl)cc1)c1ccc(-c2csnn2)cc1
/	-1.1	C[C@]12C=CC(=O)C=C1CC[C@@H]1[C@@H]2C(=O)C[C@@]2(C)[C@H]1CC[C@]2(O)C(=O)CO
/	-1.4	Cc1ccc(S(C)(=O)=NC(=O)CSc2ccc(C(F)(F)F)cn2)cc1 (stereo not drawn)
/	-0.8	NC(=O)c1cccnc1OCC(F)(F)F
-14	/	Cc1cc(C)c(C(=O)Cn2c(=O)oc3ccccc32)c(C)c1
/	44	CSC1=C(C#N)C(=C(C#N)C#N)NC(c2ccccc2)=N1
19	-2.9	CCC(C)(C)NC(=O)Cn1c(-c2ccc(C)cc2)noc1=O
/	-0.7	CCc1cnc(/N=C/N(C)C)nc1-c1c(F)cccc1F
/	-1.0	CCOC(=O)NC(=S)Nc1ccc(C(C)(C)C)cc1NC(=S)NC(=O)OCC
14	5.0	CCCSc1nnc(Cn2c(=O)sc3ccccc32)n1-c1ccccc1
5	/	Cc1nc(SCC(=O)NC(C)(C#N)C(C)C)n(CC(C)C)c1C (stereo not drawn)
5	-0.6	COc1ccccc1/C=N/NC(=O)c1ccc(=O)n(C)c1
-8	/	CCCCCCn1c(COc2ccccc2F)nnc1SCc1cc(=O)n2ccsc2n1
15	-0.3	O=C(c1ccco1)N1CCN(C(c2coc3ccc(Cl)cc3c2=O)c2nnnn2C2CCCC2)CC1 (stereo not drawn)
4	-2.4	CCS(=O)(=O)c1ccsc1S(=O)(=O)CC
5	0.0	CCN(CC)C(=S)SCc1nc(N)nc(Nc2ccccc2)n1
/	-2.3	C/C(=N\OC(=O)C(F)(F)F)c1cc(C(C)(C)C)cc2c1CCC2(C)C
10	-4.3	Fc1ccc(N2CCN(Cc3cccs3)CC2)cc1
-5	0.8	Cc1cc(/N=C/C=C2\N(C)c3ccccc3C2(C)C)n(CCC#N)n1
/	-2.8	FC(F)(F)c1ccc(C=Nc2cc(Cl)cc(Cl)c2)cc1
-3	/	O=C1CCCC/C1=C/Nc1ccc(Cl)cn1
15	1.6	O=C1O/C(=C/C=C2/OC(=O)c3ccccc32)c2ccccc21
0	6.3	NC(=O)CC1Nc2cccc3cccc(c23)NC1=O (stereo not drawn)
12	0.9	CCc1ccc(N2C(=O)CN(Cc3ccccc3)C2=S)cc1
20	-0.5	C#CCn1c(O)c(N=NC(=O)c2ccncc2)c2cc(Br)ccc21
7	-1.8	COC(=O)c1ccc(NC(=O)Nc2ccccc2)cc1
-17	-3.1	CCC(C)(C)NC(=O)COc1ccc2c(C)cc(=O)oc2c1
8	/	CC1(C)OC(=O)C(=Cc2cc3ccccc3o2)C(=O)O1
/	-2.5	CCc1nc2sc3c(c2c(=O)o1)CCCC3
-20	/	N/C(=N\c1nc2ccccc2o1)NC(=O)C(Sc1ccccc1)c1ccccc1 (stereo not drawn)
5	/	O=C(O)CNC(=O)c1ccc(NS(=O)(=O)c2ccc(Br)cc2)cc1
7	-0.3	O=C(c1c(Cl)nc2sccn12)N1CCN(Cc2ccccc2)CC1
/	2.5	CSc1cccc(NC(=O)N(Cc2ccccc2)C(=O)CC#N)c1
9	-0.6	CC(=O)Nc1nc(C2CC2)cc(-c2ccccc2)c1C#N
23	/	Fc1ccc(C(c2nnc(-c3ccccc3)o2)N2CCN(Cc3ccccc3)CC2)cc1 (stereo not drawn)
14	/	COc1ccc(O)c(/C=C(\C#N)C(N)=O)c1
8	-2.1	CC(C)(C)C(=O)CSc1nc2ccccc2[nH]1
/	-2.5	Cc1ccc(S(=O)(=O)CCSc2n[nH]c(=O)n2-c2ccccc2)cc1
6	-0.4	CCOC(=O)COc1nc(C)c(Br)c(OC)n1

Additional entries
Sa helicase inh	MgrA DNA FP	SMILES
5	-3.2	CS(=O)(=O)N(CC(=O)N1CCCCC1)Cc1ccccc1
14	-0.9	COc1ccc(NC(=O)Nc2ccc(C(=O)N3CCOCC3)cc2)cc1OC
/	-2.1	O=C1C2C3C=CC(CC3)C2C(=O)N1c1cc(C(F)(F)F)ccc1Cl (stereo not drawn)
2	-1.2	COc1ccc(CCN2CC(O)=C(c3nc4ccccc4s3)C2=N)cc1OC
31	/	COc1cc2c(cc1OC)-c1nnnn1C(C)(C)C2
6	/	COc1ccc(/C=N/NC(=O)c2ccoc2C)cc1CN1CCN(c2ccc(F)cc2)CC1
7	/	O=C1CCCN2N=C(SCC(=O)NCCc3ccccc3)SC2=N1
6	-1.1	O=C(COc1ccc2oc(-c3ccco3)cc(=O)c2c1)OC1CCCCC1
0	-2.2	COc1ccc(Cl)cc1S(=O)(=O)N1CCN=C1c1ccccc1
2	17	O=C(NCCN1CCOCC1)c1ccc2c(c1)OCCO2
-6	2.5	Cn1ccnc1C(=O)Oc1ccccc1F
39	/	CCOc1ccc(C2c3c(oc4ccccc4c3=O)C(=O)N2CCCN2CCOCC2)cc1 (stereo not drawn)
3	/	C[C@@]12CCC3[C@@H]4CCC[C@@](C)(C(=O)O)[C@H]4CC[C@]3(C/C1=N/O)C2 (stereo partly drawn)
-1	/	Cc1ccc(S(=O)(=O)N2CCN(C(=O)CSc3nnc(Cc4csc(C)n4)o3)CC2)cc1
-40	/	O=C(CC1Nc2ccccc2NC1=O)Nc1ccccc1NC(=O)CC1Nc2ccccc2NC1=O (stereo not drawn)
-6	/	COc1ccc(/C=C(\C#N)C(=O)Nc2nc(OC)cc(OC)n2)cc1
5	-1.1	COC(=O)c1sccc1NC(=S)N(C)CCC#N
/	-3.4	COc1ccc(C(=O)C2CCNCC2)cc1
/	-7.4	O=C1c2ccccc2C2N1CCCN2C(=O)c1sc2ccccc2c1Cl (stereo not drawn)
5	0.4	CCOC(=O)N1CCC(NC(=O)C2CCCCN2S(=O)(=O)c2ccc(F)cc2)CC1 (stereo not drawn)
/	0.1	Clc1ccc(OCc2nc(CSc3cccs3)no2)c(Cl)c1
17	/	O=C1/C(=N/NC(=O)C2CC2)c2cccc3cccc1c23
9	/	COC(=O)c1ccccc1N=Nc1c(N)[nH]n(-c2ccccc2)c1=O
5	/	CCCCc1c(O)nc2n(c1=O)CCCS2
15	/	COc1ccc(-c2onc(C)c2-c2cnn(-c3ccccc3)c2)c(O)c1
/	2.1	O=C(Nc1ccc(F)cc1)c1cc(-c2cccs2)nc2ccccc12
/	0.1	COc1ccc(NC(=O)C(=O)NCCN2CCN(C(=O)c3ccc(Br)cc3)CC2)cc1
2	-1.9	COC(=O)C(C)N1C(=O)S/C(=C/c2ccc(F)cc2)C1=O (stereo not drawn)
3	1.1	NS(=O)(=O)c1ccc(NC(=O)c2ccccc2C(=O)N2CCCCC2)cc1
11	/	CCC(C)NC(=O)C1CCN(S(C)(=O)=O)CC1 (stereo not drawn)
/	-0.7	O=C(NCCCN1CCOCC1)c1nn2c(c1Br)NC(c1cccs1)CC2C(F)(F)F (stereo not drawn)
5	0.8	CC(NC1=CC(=O)OC12CCCCC2)c1ccccc1 (stereo not drawn)
11	/	O=C(CSc1nnc(-c2ccccc2)o1)Nc1nccs1
-15	/	Cn1cccc1Cc1nnc(SCC(=O)Nc2ccc3c(c2)OCO3)n1CCc1ccccc1
-1	/	C=CCn1cnnc1SCc1cc(F)ccc1OC
/	-1.7	O=S(=O)(NC1CCN(Cc2c(F)cccc2Cl)CC1)c1cccc2nonc12
/	-1.9	COc1cc(/C=C/C(=O)NCC(=O)O)cc(Br)c1OC
-8	/	Cc1ccccc1C(=O)OCC(=O)N(C)c1ccccc1
-8	-2.2	CN1CCN(C(=O)/C(=C/c2ccc(N(C)C)cc2)NC(=O)c2ccccc2)CC1
16	/	COc1ccc(CN2C(=O)c3cccnc3C2=O)cc1S(=O)(=O)N(C)Cc1ccco1
14	-2.1	COC(=O)Nc1ccc(S(=O)(=O)N(CCO)CCO)cc1
4	5.9	O=C(COc1ccc(Cl)cc1Cl)Nc1ncccn1
/	0.8	N#Cc1c(SCc2ccccc2)nc2sccn12
/	3.7&-0.9&-0.6	Fc1ccc(C(c2ccc(F)cc2)N2CCN(C/C=C/c3ccccc3)CC2)cc1
/	-0.8	CCOC(=O)c1ccc(NC(=O)c2sc(NC(=O)c3cc(OC)c(OC)c(OC)c3)c(C(=O)OCC)c2C)cc1
/	-0.1	CCOC(=O)[C@H]1C(=O)C[C@@](C)(O)[C@@H](C(=O)OCC)[C@@H]1c1ccccc1
/	0.8	O=C1Nc2ccccc2/C1=C/c1cn[nH]c1-c1ccccc1
-3	2.0	O=C(CSc1ccc2nnc(-c3cccc(F)c3)n2n1)NCc1ccccc1
8	0.4	COc1ccc(C2CC(=O)c3cnn(-c4nc5ccccc5s4)c3C2)cc1 (stereo not drawn)
5	-1.8	COC(=O)c1ccc(C)c(NC(=O)C(OC)c2ccccc2)c1 (stereo not drawn)
4	1.8	O=C(CN1CCOCC1)Nc1ccc(Cl)c(NC(=O)c2ccc(Cl)cc2)c1
8	/	O=C(CC1CC2CCC1C2)OCC(=O)c1ccc[nH]1 (stereo not drawn)
22	/	O=C(O)Cc1coc2cc(O)ccc12
10	/	C=CCN(CC=C)S(=O)(=O)c1ccc(/C(O)=C(/C#N)c2nc3ccccc3[nH]2)cc1
/	-0.6	N#CC1=C(SCC(=O)Nc2ccc(Br)cc2)NC(=O)C(C#N)C12CCC(c1ccccc1)CC2 (stereo not drawn)
4	-0.8	O=C(NCc1nc(-c2ccc(Cl)cc2)no1)NC1CCCCC1
17	/	COc1cccc(C(=O)NC(C)C(c2cccs2)N2CCN(C)CC2)c1 (stereo not drawn)
/	-0.4	Cc1c(C)c(C)c(COc2ccc(I)cc2)c(C)c1C
13	/	O=C(Cc1c(Cl)cccc1Cl)OCc1ccccn1
6	-1.5	CN(c1ccccc1)S(C)(=O)=O
16	0.2	CC(=O)SCC(=O)N=c1sc2cc(F)ccc2n1C
